Vif A3G = inhibitors of Vif binding to APOBEC3G peptide, primary screen, biochemical, TR-FRET, GST-Vif 1-94, biotin-A3G peptide, dose response retest (AID 1117319) | TR-FRET GST-Vif / biotin-A3G peptide binding; higher % means a stronger effect; test concentration not given here; strong numbers were not always called active | inhibition, %; hits with a dose series show IC50 in µM | 0.57% of 260,000 active;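 active = above the screen mean plus three standard deviations and confirmed in dose response; inconclusive = results disagree or hit not tested in dose response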;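 note: Vif residues 1-94 fused to GST binding biotinylated APOBEC3G peptide 110-148; 0% = full assay without inhibitor and 100% = GST in place of GST-Vif; retest series ran down from 100 µM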
T cruzi repl = blocks replication of Trypanosoma cruzi; T. cruzi beta-gal in NIH3T3, luminescence, 90 h; 1.4% of 300,000 active; inhibition, % (test concentration not listed);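 active = mean inhibition across valid replicates above about 55%, limit read from the data; inconclusive = mean below that limit but half or more replicates reach it; inactive = mean below it, under half of replicates reach it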;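 note: signal also drops with host cell toxicity which is not excluded here; 0% = plate median of DMSO wells and 100% = zero luminescence signal; higher percent means less beta-gal luminescence so fewer parasites; stock transfer was 50 nL into about 50 µL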
AF4-AF9 inh = MLL-AF4/AF9 protein interaction inhibition; inhibition, % at 10 µM; AID 651704; P42568; AlphaScreen, biotin-AF4 peptide binding to FLAG-AF9; 0.47% of 350,000 active;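 active = every replicate reaching a set inhibition limit, whatever the replicate mean, cut at about 25% in these data; inconclusive = mean inhibition reaches that limit but some replicates miss it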;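 note: 0% = plate neutral control median and 100% = total signal loss; the record names both 10 and 1 µM as test concentration; the first replicate is given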
Target sequence (P42568 whole entry, looked up): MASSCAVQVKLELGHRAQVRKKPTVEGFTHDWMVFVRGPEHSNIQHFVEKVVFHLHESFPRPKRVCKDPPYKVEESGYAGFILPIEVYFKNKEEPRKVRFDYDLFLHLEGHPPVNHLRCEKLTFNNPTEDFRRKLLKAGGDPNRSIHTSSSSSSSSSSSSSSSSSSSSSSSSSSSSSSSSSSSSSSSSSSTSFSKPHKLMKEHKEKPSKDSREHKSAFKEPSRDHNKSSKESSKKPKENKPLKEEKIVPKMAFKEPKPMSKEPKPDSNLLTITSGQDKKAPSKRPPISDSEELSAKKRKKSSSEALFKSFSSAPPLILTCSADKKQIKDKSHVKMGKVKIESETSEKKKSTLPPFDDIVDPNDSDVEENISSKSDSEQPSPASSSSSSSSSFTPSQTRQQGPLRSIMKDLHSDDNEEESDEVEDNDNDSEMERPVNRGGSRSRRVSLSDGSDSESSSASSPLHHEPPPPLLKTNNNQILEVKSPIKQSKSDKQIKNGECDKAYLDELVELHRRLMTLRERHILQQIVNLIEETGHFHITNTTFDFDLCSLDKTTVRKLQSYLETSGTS
Calb FLC = C. albicans growth modulation with fluconazole | C. albicans CaCi-2 (fluconazole-resistant clinical isolate) + fluconazole, Alamar Blue growth, 48 h | growth inhibition, % (test concentration not listed) | 0.57% of 300,000 active | AID 1979;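 active = most replicates above 75%; inconclusive = exactly half above 75%; inactive = most below 75%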;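 note: all wells also contain fluconazole at 8 µg/ml as a sub-toxic cotreatment; 0% = median of DMSO wells and 100% = median of geldanamycin control wells; wells of about 8 µL received 7.5 nL stock; the first replicate is given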
LANA-H2B inh = blocks KSHV LANA binding to histone H2A/H2B | Q9QR71 | cell-free LANA-H2A/H2B peptide, fluorescence polarization | inhibition, % (no concentration beside the values) | 0.6% of 320,000 active | AID 2629; in the data active = inhibition mostly above about 10%, no sharp cut-off; inactive = mostly below about 6.7%;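 note: stock transfer was 7.5 nL into about 10 µL; 0% = median of vehicle wells and 100% = median of positive control wells; one replicate is shown; the record names a cut of 25% in any replicate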
Beta apoptosis = blocks beta cell apoptosis; 0.8% of 300,000 active; protection from apoptosis, % (concentration not given with the values); INS-1E cytokine-induced death, ATP luminescence, 48 h; percent of positive-control rescue, neutral wells zero;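 active = all replicates at 75% or more, or half of them and the mean; inconclusive = half reach 75% but not the mean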;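 note: 0% = cytokine-treated negative control wells and 100% = positive control rescue; higher means more ATP so stronger rescue from cytokine killing; wells of about 40 µL received 100 nL stock; the first replicate is given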
Bfl-1 A1 inh = inhibitors of the anti-apoptotic protein A1, read as caspase activation. 0.066% of 330,000 active. caspase activation, % (test concentration not listed). AID 2462. MEF A1-2A-BIM cells, Caspase-Glo 3/7 luminescence, 3 h; percent of clofoctol response, vehicle zero;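 active = over half of replicate activation scores above 10%, or exactly half above 10 with the replicate mean above 10; inconclusive = replicate mean below 10 yet half the replicates above 10; inactive = over half of replicates below 10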;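 note: wells of about 30 µL received 50 nL stock; many hits fall short of the cut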
RanGTP-Imp inh = inhibitors of RanGTP-importin-beta interaction, primary screen, biochemical, FRET, CFP-Ran, YFP-importin-beta, homogeneous | cell-free CFP-Ran/YFP-importin-beta FRET ratio | inhibition, % (test concentration not listed) | 1.1% of 300,000 active;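 active = most replicates above 15%; inconclusive = exactly half above 15%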;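 note: 0% = DMSO wells and 100% = Ran loaded with GDP instead of GTP; wells of about 40 µL received 100 nL stock; the first replicate is given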
Active calls of the source: *; u = inconclusive; x = no result given; & = joins results of further samples. Rows were taken by chance; 4.3% or so of the library scored in one or more.

canonical_smiles	Vif A3G	AF4-AF9 inh	LANA-H2B inh	RanGTP-Imp inh	Bfl-1 A1 inh	T cruzi repl	Beta apoptosis	Calb FLC
FC(F)(F)c1cnc(-c2cnc(-c3cccnc3)nc2)c(Cl)c1	-10%	-11	-0.4	-1.9	-1.7	0	0	-10
O=[N+]([O-])c1ccc(C(=S)N2CCN(Cc3ccccc3)CC2)cc1	-1%	x	-3.5	1.7	-0.4	8	-5	-5
Cc1oc2c(cc(NS(=O)(=O)c3ccc4c5c(cccc35)C(=O)N4)c3ccccc32)c1C(=O)OC(C)C	10%	x	-2.5	x	-1.1	52	-2	70
Cc1ccccc1COC(=O)CCC1=NS(=O)(=O)c2ccccc2N1	x	0.3	-3.4	-2.0	-0.2	-3	-8	14
COCc1ccc(C(=O)NC2CCCc3c2cnn3-c2cc(C)cc(C)c2)s1 (stereo not drawn)	x	0.8	x	-11	x	23	x	-9
CCOC(=O)C1CCN(C(=O)Cn2cc(C(=O)OC)c3ccccc32)CC1	4%	-1.7	3.8	-3.5	-0.1	-1	-7	14
CCOC(=O)c1cnc(SCC(=O)c2ccc3c(c2)OCCO3)nc1N	20%	x	7.3	-0.8	-0.9	-5	-1	44
Cc1c(NC(=O)/C(=C/c2cccs2)NC(=O)c2ccccc2)c(=O)n(-c2ccccc2)n1C	x	-0.5	-4.9	-2.4	-0.3	1	-1	-8
COc1ccc2c(CC(=O)OCC(=O)c3ccc(F)cc3)coc2c1	0%	x	2.9	x	-0.4	x	-1	x
Cc1ccc2oc(=O)cc(CN3CCN(C/C=C/c4ccccc4)CC3)c2c1	-10%	0.1	0.4	-3.7	-0.2	57*	7	2
Cc1cc2oc3c(c(=O)c2cc1C)C(c1ccc(C(C)C)cc1)N(CCCN1CCOCC1)C3=O (stereo not drawn)	2%&28%	6.4	0.4	-3.6	0.9	2	0	5
CCOc1ccc(C2C(=O)N(C3CCCCC3)CC(=O)N2CC2CCCO2)cc1OC (stereo not drawn)	u	-0.2	-0.4	x	0.8	-13	-5	6
Cc1ccc(C(C)n2cc(C(=O)NCCN3CCN(C)CC3)nn2)cc1 (stereo not drawn)	0%	x	-3.6	-0.1	1.5	-49	-5	-1
O=C(CSc1ccccc1)Nc1cccc(NC(=O)c2ccco2)c1	1%	u	-3.9	-2.6	-1.0	-1	-5	-8
CNC(=O)c1c(NC(=O)c2ccc(S(=O)(=O)N3CC(C)OC(C)C3)cc2)sc2c1CCN(C(C)C)C2 (stereo not drawn)	x	1.5	-14	62*	1.0	23	x	2
CCN(CC)CCNC(=O)c1ccc(NC(=O)c2ccc(Cl)c(S(=O)(=O)N3CCCCCC3)c2)cc1	7%	5.4	-0.7	-5.9	-0.2	5	12	19
CCC1=NN(C(=O)c2ccccc2Br)C(O)(c2ccc(Br)cc2)C1 (stereo not drawn)	18%	1.1	4.9	u	u	14	-1	2
COc1ccccc1Oc1ccc(N2CC(C(=O)OCC(=O)c3ccc(F)cc3)CC2=O)cc1 (stereo not drawn)	3%	-4.2	x	1.2	x	-10	x	-1
COc1ccc(N2C(=NC(=O)C3CCCCC3)SC3CS(=O)(=O)CC32)cc1Cl (stereo not drawn)	x	-0.8	-4.9	0.5	-0.1	6	-2	x
COC(=O)c1cc(NC(=O)c2cc3ccccc3o2)cc(C(=O)OC)c1	x	-2.2	16*	5.9	-0.2	-1	-6	2
CS(=O)(=O)c1ccc(C(=O)OCC(=O)NC23CC4CC(CC(C4)C2)C3)cc1[N+](=O)[O-]	1%	2.0	4.2	0.7	-0.2	3	-44	-8
O=C(COC(=O)c1ccco1)NCCNC(=O)COC(=O)c1ccco1	x	0.9	2.2	3.6	-0.2	2	-4	12
COc1ccc(NC(=S)NC(NC(C)=O)C(Cl)(Cl)Cl)c([N+](=O)[O-])c1 (stereo not drawn)	3%	-3.2	-4.6	-2.6	0.3	7	-3	7
CC12CCC(=O)N1C(C(=O)NCCc1ccc(S(N)(=O)=O)cc1)CS2 (stereo not drawn)	x	-1.8	-0.7	0.3	-0.3	-5	-16	-20
CSc1ccccc1-c1nnc(-c2ccc(Cl)c(Cl)c2)o1	u	x	2.5	3.4	-1.4	5	2	-1
COC(=O)c1c(-c2ccc(C)cc2)csc1N	5%	-1.8	4.9	0.9	-0.2	-14	2	-4
CC(=O)C(Cc1ccccc1)NC(=O)COC(=O)c1ccc(-n2cnnn2)cc1 (stereo not drawn)	-7%	-1.7	2.3	x	-0.7	x	2	x
COc1ccc(C(OC(=O)c2ccco2)C(=O)NC2CCCC2)cc1OC (stereo not drawn)	x	2.6	-6.5	1.1	0.1	-11	-4	1
CC(C)CC(NC(=O)c1ccc(C#CC(C)(C)O)s1)C(=O)O (stereo not drawn)	0%	-2.5	1.5	1.0	-0.5	-17	-6	-10
Cc1nn(Cc2noc(C(=O)NCc3ccccn3)n2)c(C)c1Br	x	1.6	2.1	-2.9	-0.8	-11	-7	2

Continued (2 carried over from the part before).
canonical_smiles	Vif A3G	AF4-AF9 inh	LANA-H2B inh	RanGTP-Imp inh	Bfl-1 A1 inh	T cruzi repl	Beta apoptosis	Calb FLC
CC(C)CC(NC(=O)c1ccc(C#CC(C)(C)O)s1)C(=O)O (stereo not drawn)	0%	-2.5	1.5	1.0	-0.5	-17	-6	-10
Cc1nn(Cc2noc(C(=O)NCc3ccccn3)n2)c(C)c1Br	x	1.6	2.1	-2.9	-0.8	-11	-7	2
O=C(NC1CC2CCCC(C1)N2C(=O)NCc1ccccc1)C1CC1 (stereo not drawn)	-2%	x	11	u	-0.1	-8	8	0
CCOCCCNC(=O)Cn1cnc2c(cnn2-c2ccc(C)c(C)c2)c1=O	x	-2.1	2.8	0.2	-0.2	-10	-13	-1
CCC(OCC(O)CN1CCCCC1)c1ccccc1 (stereo not drawn)	x	-0.3	0.5	-0.7	-1.2	-6	3	3
O=C(COc1ccccc1)Nc1nnc(S(=O)(=O)N2CCCC2)s1	x	0.6	0.8	-1.3	-0.1	-2	-10	-10
COc1ccc(CN2C(=NC(=O)c3ccccc3)SC3CS(=O)(=O)CC32)cc1OC (stereo not drawn)	x	-1.5	1.7	2.8	0.7	17	-8	-1
CC(C)CC(CO)N1CCN(C(=O)c2ccc(Cl)cc2)CCC1=O (stereo not drawn)	x	0.9	-3.0	0.7	-0.5	-3	-7	4
O=C(N/N=C/c1cccn1-c1ccc([N+](=O)[O-])cc1)c1cccnc1	29%	0.4	4.3	2.4	1.8	-4	x	-9
Cc1onc(-c2ccccc2Cl)c1C(=O)Nc1cnn(Cc2ccccc2)c1	x	-14	0.1	-1.8	0.1	3	-6	0
CC(Sc1ccccc1)C(=O)N1CCN(S(=O)(=O)c2ccc(Cl)cc2)CC1 (stereo not drawn)	x	1.6	-3.8	-1.4	1.0	5	7	-2
CCCn1c(=O)c2c(nc3n2CCS3)n(C)c1=O	-4%	-0.1	6.0	1.3	0.3	-8	-4	11
C=CCn1c(SCC(=O)Nc2nc(C)cs2)nnc1C(NC(=O)c1ccccc1)C(C)C (stereo not drawn)	-1%	x	-4.3	-0.9	-0.1	-8	-1	0
CCCc1nc2ccccc2c(=O)n1NC(=O)c1c(O)c2ccccc2n(C)c1=O	u	0.5	-0.9	4.9	0.7	-1	19	-6
Cc1ccc(S(=O)(=O)N2CCN(CCO)CC2)cc1-c1nnc2c3ccccc3c(C)nn12	3%	x	-5.2	0.8	0.3	5	-14	-12
Cc1ccc(CNC(=O)CS(=O)(=O)c2cn(CC(=O)N3CCOCC3)c3ccccc23)cc1	x	-1.6	-1.8	0.1	-0.5	-8	0	-1
O=C(COC(=O)c1c(Cl)cccc1Cl)Nc1ccccc1Br	x	-1.3	-0.1	-0.3	-2.3	-15	-1	-32
COc1cc(/C=N\NC(=O)c2c(C)nc3cc(C)ccn23)ccc1O	6%	1.6	-0.5	-1.2	-0.6	-7	x	7
NC(=O)CN1CCOCCN(CC(N)=O)CCOCC1	x	x	-1.5	11	0.3	-7	0	16
CC(=O)c1cnc(Nc2cccc(Cl)c2Cl)s1	x	-12	-6.4	3.1	-5.4	13	1	79*
NS(=O)(=O)c1ccc(NC(=O)CSc2ccccn2)cc1	7%	x	4.4	-1.8	0.3	-11	-4	10
COc1cc(C2CC(=O)c3cnc(NC(=O)c4ccco4)nc3C2)cc(OC)c1OC (stereo not drawn)	x	1.4	1.0	-2.1	-1.0	-6	7	8
COc1ccc(NC(=S)N2CCC(C(=O)c3ccc(C)cc3)CC2)c(OC)c1	-3%	2.1	3.9	-2.2	-0.1	7	-6	-27
CC1CCN(S(=O)(=O)c2ccc3c(c2)c(=O)c(C(=O)NCc2ccccc2Cl)cn3C)CC1	28%	x	-2.4	1.6	1.1	4	10	8
COc1ccc(/C=N/OCC(=O)N2CC3(C)CC2CC(C)(C)C3)cc1OC (stereo not drawn)	-1%	x	4.3	0.6	-0.3	-3	-2	15
O=C(O)c1cccc(S(=O)(=O)Nc2ccccc2Cc2ccccc2)c1	x	44*	-3.0	0.4	-0.5	-4	x	-1
NCC(c1ccccc1)(c1ccccc1)c1ccccc1	-3%	4.2	3.2	0.3	1.0	15	x	-7
Cc1ccc(S(=O)(=O)N/N=C\c2ccc3c(c2)OCO3)c(C)c1	-5%	-1.3	-2.3	0.2	1.2	-10	-3	6
COc1cccc(C(=O)NNC(=O)c2ccc(NS(=O)(=O)c3cccs3)cc2)c1OC	0%	-1.9	x	1.4	0.3	-6	0	-4
Cc1cccc(NC(=O)CCC(=O)N/N=C/c2ccco2)c1C	3%	x	0.3	4.5	4.1	-15	-4	0
Cc1[nH]c2ccc(-c3n[nH]c(=S)n3C)cc2c1C	5%	-2.9	-2.2	-3.4	0.1	-5	-4	17
O=C(c1ccccc1)N1CCc2[nH]nc(-c3ccccc3)c2C1	x	0.6	-1.5	1.2	-0.2	4	-4	-1
CC(C)(C)n1nnnc1CN(Cc1ccc(F)cc1)Cc1ccco1	0%	x	4.6	3.1	0.9	12	x	-2
CC(=O)NC(c1ccc(Cl)cc1Cl)c1ccc2cccnc2c1O (stereo not drawn)	x	7.9	0.5	5.0	0.2	62*	-6	-1

Copied from above (2 entries):
canonical_smiles	Vif A3G	AF4-AF9 inh	LANA-H2B inh	RanGTP-Imp inh	Bfl-1 A1 inh	T cruzi repl	Beta apoptosis	Calb FLC
O=C(NC1CC2CCCC(C1)N2C(=O)NCc1ccccc1)C1CC1 (stereo not drawn)	-2%	x	11	u	-0.1	-8	8	0
CCOCCCNC(=O)Cn1cnc2c(cnn2-c2ccc(C)c(C)c2)c1=O	x	-2.1	2.8	0.2	-0.2	-10	-13	-1

Compound activity deposited in PubChem by several laboratories.
